GLA inh pH 4.5 = inhibitors of human alpha-galactosidase A at pH 4.5; P06280; purified enzyme, 4-MU-alpha-Gal fluorescence, pH 4.5; activity change, negative = inhibition, % at 105 µM; 230,000 tested, under 10 active; AID 1467; inconclusive = small, poorly fitted or top-dose-only inhibition, or a rising curve; inactive = flat fitted curve, though single readings scatter; no compound was filed as active;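 further: 0% = full activity with enzyme and -100% = basal without enzyme; dose as in the result columns while the protocol names 77 µM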
miR-21 reporter = miR-21 reporter, rising signal. HeLa miR-21 FLuc reporter, luciferase, 48 h. Potency, µM (top dose mostly 38.3 µM), inactives show top-dose reporter change, positive = more light. 340,000 tested, under 10 active; active = well fitted rising curve with a large enough effect; inconclusive = small, poorly fitted or top-dose-only effect; inactive = no such curve, though single readings can be large or run the other way;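 further: % of control where 0% means no effect; miR-21 action dims this reporter so a rising signal means less miR-21 action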
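Compounds were titrated across several concentrations (up to approximately 40 uM) and incubated 48 hours with HeLa miR-21-FLuc reporter cells (miR-21 target sequence downstream of FLuc, endogenous miR-21). Readout was firefly luciferase luminescence after lytic detection reagent.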
Rango complex inh = prevents formation of the Rango-importin beta complex | Potency, µM (series often up to 92.2 µM), inactives show at the highest dose inhibition of complex formation | AID 540263 | Q14974 | Rango CFP/YFP FRET sensor + importin beta, 45 min | actives 0.031% (n = 340,000); active = rising FRET ratio curve, often small or poorly fitted; inconclusive = mostly compound fluorescence or quenching in the first reads; inactive = flat curves in all reads;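 further: potency means the concentration at half of the fitted maximal effect; 0% = DMSO wells and 100% = buffer wells lacking importin beta; nearly all actives have a fitted effect of over 15% in size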
Target sequence (Q14974 whole entry, looked up): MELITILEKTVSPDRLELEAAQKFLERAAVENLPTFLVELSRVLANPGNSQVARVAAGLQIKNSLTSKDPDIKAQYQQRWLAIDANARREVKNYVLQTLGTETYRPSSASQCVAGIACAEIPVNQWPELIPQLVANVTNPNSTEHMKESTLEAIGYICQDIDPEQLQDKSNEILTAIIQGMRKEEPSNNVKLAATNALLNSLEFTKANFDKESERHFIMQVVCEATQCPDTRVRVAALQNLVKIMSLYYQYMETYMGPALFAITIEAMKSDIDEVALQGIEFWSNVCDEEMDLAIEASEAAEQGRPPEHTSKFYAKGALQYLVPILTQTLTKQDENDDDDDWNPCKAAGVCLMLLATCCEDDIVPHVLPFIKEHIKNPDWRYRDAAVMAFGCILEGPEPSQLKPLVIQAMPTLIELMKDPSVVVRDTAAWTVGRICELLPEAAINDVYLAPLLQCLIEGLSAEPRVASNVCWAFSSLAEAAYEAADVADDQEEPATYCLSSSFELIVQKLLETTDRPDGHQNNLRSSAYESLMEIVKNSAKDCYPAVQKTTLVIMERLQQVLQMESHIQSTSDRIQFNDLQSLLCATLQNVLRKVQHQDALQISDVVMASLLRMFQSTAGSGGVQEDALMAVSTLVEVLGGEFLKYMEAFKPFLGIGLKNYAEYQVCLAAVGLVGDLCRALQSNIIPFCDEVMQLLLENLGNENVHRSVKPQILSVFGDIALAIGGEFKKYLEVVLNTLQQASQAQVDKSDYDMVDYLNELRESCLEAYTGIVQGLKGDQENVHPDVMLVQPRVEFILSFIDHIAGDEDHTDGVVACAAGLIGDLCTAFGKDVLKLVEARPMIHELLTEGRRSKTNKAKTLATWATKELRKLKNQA
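FRET biosensor (snurportin 1 IBB flanked by EYFP and cerulean), 50 nM, with compound 5 min, then 0.125 microM importin beta in PBS, 1 mM DTT, 0.02% Tween-20, 0.1% BSA. CFP/YFP ratio read after 45 min at room temperature; pre-read flags interference.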
Rango release inh = inhibition of RanGTP-driven Rango-importin beta dissociation | O95149+P62826 | Biochemical FRET Rango-importin beta, RanGTP-induced dissociation | Potency, µM (series often up to 46.1 µM), for the others: top-dose activity change, negative = inhibition | actives 0.071% (n = 340,000); active means falling FRET ratio curve, often poorly fitted, with flat reads before Ran was added; inconclusive means other falling curves, or compound fluorescence or quenching; inactive means flat or rising ratio curve;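 further: potency means the concentration at half of the fitted maximal effect; % of control where 0% means no effect; nearly all actives have a fitted effect of over 45% in size; -100% = wells without RanGTP and RCC1; the record marks most hits as doubtful in a second field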
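Compounds preincubate 5 min with complex of recombinant Rango and importin beta in PBS with 1 mM DTT. Ran (0.6 uM) loaded with 2 mM GTP plus 0.2 uM RCC1 starts dissociation; FRET is recorded 45 min later.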
Active calls of the source: *. Not all compounds are listed; rates above refer to the full screens.

COc1cc(-c2nnc(SCC(=O)Nc3ccc4c(c3)OCCO4)o2)cc(OC)c1OC was read as GLA inh pH 4.5 -17.1, miR-21 reporter 0.3%, Rango complex inh -2.7% and Rango release inh -3.2%.
For CC(=O)N=C1SC2CS(=O)(=O)CC2N1c1c(Cl)cccc1Cl (stereo not given) the results were GLA inh pH 4.5 4.2, miR-21 reporter -4.4%, Rango complex inh 5.1% and Rango release inh 0.8%.
Screening CC(=O)c1cc(C(=O)N2CCCC(C(=O)c3ccc(Cl)cc3)C2)cs1 (stereo not given) returned miR-21 reporter -0.8%, Rango complex inh 6.6% and Rango release inh 14.8%.
`O=[N+]([O-])c1cccc(C(=NCc2ccccc2)NO)c1` gave miR-21 reporter -15.8%, Rango complex inh 3.6% and Rango release inh -3.7%.
Screening CCN(C(=O)Cc1c(C(=O)O)n(CC)c2ccccc12)c1ccccc1C returned miR-21 reporter 0.6%, Rango complex inh 0.1% and Rango release inh 18.4%.
Screening COc1ccccc1/C=C/C(=O)Nc1cccc(C(C)=O)c1 returned GLA inh pH 4.5 4.2, miR-21 reporter -29.3%, Rango complex inh -5.4% and Rango release inh -26.1%.
For CCOc1ccc(CCNC(=O)COC(=O)c2ccc(Cl)nc2)cc1OCC the results were Rango complex inh 2.6% and Rango release inh -8.5%.
For C=CCn1c(SCC(=O)NCc2cccs2)nnc1C1CCCCC1 the results were GLA inh pH 4.5 -0.9, miR-21 reporter -4.0%, Rango complex inh 5.7% and Rango release inh 14.3%.
For CCOc1ccc(/C=C(/NC(=O)c2ccccc2Cl)C(=O)O)cc1 the results were GLA inh pH 4.5 5.9, miR-21 reporter 0.5%, Rango complex inh 3.8% and Rango release inh 14.3%.
Screening CC(C)CC(=O)NC(NC(=S)Nc1ccccc1)C(Cl)(Cl)Cl (stereo not given) returned GLA inh pH 4.5 -1.0, miR-21 reporter -1.1%, Rango complex inh 0.9% and Rango release inh -4.0%.
Screening COc1ccc(CC(=O)Nc2cc(=O)n(C)c(=O)n2C)cc1 returned GLA inh pH 4.5 -7.9, miR-21 reporter -10.7%, Rango complex inh -3.8% and Rango release inh 0.3%.
CCOc1ccc(/C=C(\C(=O)O)c2ccc(S(=O)(=O)N3CCOCC3)s2)cc1OC was read as GLA inh pH 4.5 2.8, miR-21 reporter -17.5%, Rango complex inh inconclusive and Rango release inh 3.5%.

Sorted by SMILES length (rising): 4 of the compounds above
Screening COc1ccccc1/C=C/C(=O)Nc1cccc(C(C)=O)c1 returned GLA inh pH 4.5 4.2, miR-21 reporter -29.3%, Rango complex inh -5.4% and Rango release inh -26.1%.
`O=[N+]([O-])c1cccc(C(=NCc2ccccc2)NO)c1` gave miR-21 reporter -15.8%, Rango complex inh 3.6% and Rango release inh -3.7%.
Screening CC(C)CC(=O)NC(NC(=S)Nc1ccccc1)C(Cl)(Cl)Cl (stereo not given) returned GLA inh pH 4.5 -1.0, miR-21 reporter -1.1%, Rango complex inh 0.9% and Rango release inh -4.0%.
For CCOc1ccc(/C=C(/NC(=O)c2ccccc2Cl)C(=O)O)cc1 the results were GLA inh pH 4.5 5.9, miR-21 reporter 0.5%, Rango complex inh 3.8% and Rango release inh 14.3%.

The results go on:
For COCCCn1c(=O)c2sccc2n(Cc2cccc(F)c2)c1=O the results were miR-21 reporter -4.4%, Rango complex inh -0.9% and Rango release inh 25.6%.
CCC(C)NC(=O)COc1ccc(Br)c(C)c1 (stereo not given) was read as GLA inh pH 4.5 7.0, miR-21 reporter -8.8%, Rango complex inh 0.3% and Rango release inh 5.7%.
`CC(=O)c1cccc(NC(=O)c2ccc(S(=O)(=O)N3CCCC3)cc2)c1` gave miR-21 reporter 6.2%, Rango complex inh -0.4% and Rango release inh -0.9%.
Screening CC1Sc2ccc(S(=O)(=O)CCC(=O)Nc3cc(F)ccc3F)cc2NC1=O (stereo not given) returned miR-21 reporter 11.3%, Rango complex inh -4.3% and Rango release inh -25.5%.
For CCCCOc1ccc(S(=O)(=O)N2CCN(C)CC2)cc1 the results were Rango complex inh -0.5% and Rango release inh -4.8%.
Screening O=C(CSc1ncn[nH]1)Nc1ccnc2ccccc12 returned GLA inh pH 4.5 -9.7, miR-21 reporter 17.4%, Rango complex inh 0.0% and Rango release inh 0.2%.
COC(=O)CSc1ccc2c(N)c(C(=O)OC)sc2c1 was read as GLA inh pH 4.5 4.8, miR-21 reporter -0.3%, Rango complex inh -2.2% and Rango release inh 7.6%.
For Cc1cc(C)c(S(=O)(=O)N(CC(=O)N2CCOCC2)C2CCCCC2)c(C)c1 the results were GLA inh pH 4.5 -4.7, miR-21 reporter 1.3%, Rango complex inh 3.9% and Rango release inh 10.5%.
O=C(Nc1nncs1)c1cccc(S(=O)(=O)N2CCCC2)c1 was read as GLA inh pH 4.5 -4.1, miR-21 reporter -3.8%, Rango complex inh 5.2% and Rango release inh -0.1%.
CCOC(=O)N1CCN(C(=O)C2CCC(CNS(=O)(=O)c3ccccc3)CC2)CC1 (stereo not given) was read as GLA inh pH 4.5 -3.2, miR-21 reporter -0.7%, Rango complex inh -0.2% and Rango release inh -12.9%.
COc1ccc(C(O)(c2ccccc2OC)C(CN2CCOCC2)c2ccccc2)cc1 (stereo not given) was read as GLA inh pH 4.5 -1.0, miR-21 reporter 29.9%, Rango complex inh 3.0% and Rango release inh -7.2%.
`NC(C(=O)O)C(c1ccccc1)C(F)F` (stereo not given) gave GLA inh pH 4.5 3.8, miR-21 reporter 4.1%, Rango complex inh -0.6% and Rango release inh -7.0%.
COc1ccc(OC)c(/C=N/NC(=O)CC2C(=O)NN=C2C)c1 (stereo not given) was read as GLA inh pH 4.5 0.1, miR-21 reporter -0.7%, Rango complex inh -0.1% and Rango release inh 0.0%.
For COc1cc(S(=O)(=O)N2CCCCCC2)ccc1Cl the results were GLA inh pH 4.5 -2.5, miR-21 reporter -18.2%, Rango complex inh -5.7% and Rango release inh 3.2%.
Screening CC(=O)C1=C(c2ccccc2)NC(=O)NC1c1ccccc1OCC#N (stereo not given) returned GLA inh pH 4.5 -9.7, miR-21 reporter 0.0%, Rango complex inh -1.1% and Rango release inh -9.0%.
For O=C(Nc1ccccc1)c1ccc(NCCc2ccccc2)c([N+](=O)[O-])c1 the results were GLA inh pH 4.5 -5.4, miR-21 reporter -9.6%, Rango complex inh 5.0% and Rango release inh -0.1%.
Screening Cc1c(NC(=O)C(C)Oc2ccccc2F)c(=O)n(-c2ccccc2)n1C (stereo not given) returned miR-21 reporter -4.0%, Rango complex inh 2.3% and Rango release inh 15.7%.
Screening Cc1ccc(-n2c(SCC(=O)Nc3cc(C)on3)nc3c([nH]c4ccccc43)c2=O)cc1 returned GLA inh pH 4.5 -0.4, miR-21 reporter -14.1%, Rango complex inh -0.3% and Rango release inh 3.9%.
For Cc1nc(C(F)(F)F)c(C(=O)N/N=C(\N)c2ccccn2)s1 the results were GLA inh pH 4.5 -8.1, miR-21 reporter 25.5%, Rango complex inh -1.2% and Rango release inh 7.4%.
COCCn1nnnc1SCC(=O)Nc1ccc2c(c1)OCO2 was read as GLA inh pH 4.5 10.0, miR-21 reporter -8.3%, Rango complex inh -2.8% and Rango release inh -11.5%.
For CC(C)c1ccc(Nc2nnc(SC3CCOC3=O)s2)cc1 (stereo not given) the results were GLA inh pH 4.5 3.2, miR-21 reporter -11.8%, Rango complex inh 0.1% and Rango release inh -3.0%.
For CCC(=O)Nc1ccc(NC(=O)CSc2nc3cc4c(cc3cc2C)CCC4)cc1 the results were GLA inh pH 4.5 -2.9, miR-21 reporter 12.4%, Rango complex inh 1.7% and Rango release inh -6.8%.
`Cn1c(=O)[nH]c(=O)c2c1nc(NCCN)n2CCOc1ccccc1` gave miR-21 reporter -0.9%, Rango complex inh -2.7% and Rango release inh -9.2%.
For CCC(C)Sc1ccc([C@H]2N[C@@](C)(C(=O)OC)[C@H]3C(=O)N(CC)C(=O)[C@@H]23)cc1OC (stereo not given in full) the results were Rango complex inh -2.2% and Rango release inh 17.3%.
Screening COc1ccc(-n2c(O)c(/C=N/NS(=O)(=O)c3cc(C)ccc3C)c3ccccc3c2=O)cc1OC returned GLA inh pH 4.5 -2.0, miR-21 reporter -10.6%, Rango complex inh inconclusive and Rango release inh inconclusive.
Screening O=C(COC(=O)c1ccc([N+](=O)[O-])o1)NC1CCCCC1 returned Rango complex inh 3.1% and Rango release inh -11.7%.
O=C(NCC(c1ccco1)N1CCc2ccccc2C1)c1cccc([N+](=O)[O-])c1 (stereo not given) was read as Rango complex inh -4.8% and Rango release inh 4.6%.
For Cc1cccc(NC(=O)Cn2cnc3c(oc4nc5c(cc43)COC(C)(C)C5)c2=O)c1 the results were GLA inh pH 4.5 4.7, miR-21 reporter -10.3%, Rango complex inh -1.3% and Rango release inh 7.7%.
`CCOC(=O)c1cc2c(ccn2C)n1CC(=O)N(C)C` gave GLA inh pH 4.5 5.0, miR-21 reporter -0.3%, Rango complex inh -1.4% and Rango release inh 22.5%.
For Cc1ccccc1N1CCN(C2CCCN(C(=O)c3ocnc3C)C2)CC1 (stereo not given) the results were miR-21 reporter -4.2%, Rango complex inh 1.7% and Rango release inh 9.6%.
Screening Cc1ccc(NC(=O)/C(=C\c2cccc(Br)c2)NC(=O)c2ccco2)cc1 returned GLA inh pH 4.5 0.0, miR-21 reporter -4.0%, Rango complex inh 0.8% and Rango release inh -13.3%.
`Cc1ccc(OCC(=O)OCC(=O)c2cccc([N+](=O)[O-])c2)cc1C` gave miR-21 reporter 1.0%, Rango complex inh -1.9% and Rango release inh 18.2%.
Screening O=C(COC(=O)CCc1nc2ccccc2c(=O)[nH]1)Nc1ccc(Cl)cn1 returned GLA inh pH 4.5 -1.2, miR-21 reporter -6.1%, Rango complex inh -4.5% and Rango release inh -15.7%.
CCCCCCn1c(COc2ccccc2F)nnc1SCC(=O)c1c(N)n(C)c(=O)n(C)c1=O was read as GLA inh pH 4.5 0.2 and miR-21 reporter -0.5%.
For NC(=O)NNc1cccc(Cl)n1 the results were GLA inh pH 4.5 6.0, miR-21 reporter -0.6%, Rango complex inh 0.1% and Rango release inh 0.3%.
`O=C(CCN1C(=O)C2C3C=CC(C3)C2C1=O)N1CCN(c2cccc(Cl)c2)CC1` (stereo not given) gave GLA inh pH 4.5 -11.0, miR-21 reporter -0.1%, Rango complex inh 9.0% and Rango release inh 0.1%.
`OCCNCc1cc(Br)ccc1OCc1ccc(Cl)cc1Cl` gave GLA inh pH 4.5 -5.3, miR-21 reporter 25.8%, Rango complex inh 1.6% and Rango release inh 1.4%.
Screening COc1ccc(C(=O)NCCSC2CCCCC2)cc1 returned GLA inh pH 4.5 -24.0, miR-21 reporter -67.9%, Rango complex inh 1.7% and Rango release inh 4.8%.
`COc1ccc(NC(=O)COc2nsnc2N2CCOCC2)cc1` gave GLA inh pH 4.5 6.0, miR-21 reporter -1.1%, Rango complex inh 0.9% and Rango release inh -23.4%.
COC(=O)CSc1nnc(Cc2cc(=O)[nH]c(=O)[nH]2)n1-c1cccc(OC)c1 was read as GLA inh pH 4.5 6.1, miR-21 reporter -6.8%, Rango complex inh -3.6% and Rango release inh 11.1%.
Screening Cc1noc(NS(=O)(=O)c2ccc(NC(=O)C(Cl)(Cl)Cl)cc2)c1C returned miR-21 reporter -1.0%, Rango complex inh -0.6% and Rango release inh 11.1%.
COc1cccc(N2CCN(c3ccc4nnc(CCC(=O)Nc5cc(C)ccn5)n4n3)CC2)c1 was read as miR-21 reporter -4.1%, Rango complex inh 1.8% and Rango release inh -13.8%.
For CC(C(=O)N(C)C1CCCCC1)N1CCC(C(N)=O)CC1 (stereo not given) the results were miR-21 reporter 1.2%, Rango complex inh -3.3% and Rango release inh 5.6%.
COc1cc([N+](=O)[O-])cc(/C=N/NC(=O)c2cccnc2)c1O was read as GLA inh pH 4.5 -5.1, miR-21 reporter 4.6%, Rango complex inh -2.1% and Rango release inh -15.1%.
For COc1ccccc1NC(=O)Nc1ccccc1N1CCOCC1 the results were GLA inh pH 4.5 -2.6, miR-21 reporter -7.4%, Rango complex inh 0.1% and Rango release inh -3.4%.
`O=C(CNC(=S)N(Cc1ccc(F)cc1)C1CCCCC1)NCCN1CCOCC1` gave GLA inh pH 4.5 10.0, miR-21 reporter -1.7%, Rango complex inh -7.0% and Rango release inh 6.9%.

Source: PubChem BioAssay (National Center for Advancing Translational Sciences (NCATS))
